Bioassay records (PubChem BioAssay)
Sfp PPTase inh – inhibitors of Bacillus subtilis Sfp phosphopantetheinyl transferase; Q9F4F7; Potency, µM, without a hit: max response, negative = inhibition, most hits filed as inhibitors; AID 1490; 310,000 tested, 3.5% active; Biochemical Sfp PPTase activity, qHTS; active = well fitted inhibition curve with a large enough effect; inconclusive = small, poorly fitted or top-dose-only effect, or another doubt; inactive = no such curve, though single readings can be large or run the other way;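 note: the enzyme is Sfp with the accession as filed and its product quenches rhodamine fluorescence; potency is the fitted concentration of half-maximal effect; 0% = enzyme reaction without inhibitor and -100% = no enzyme wells; top concentration of the series not given in the record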
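With Hepes-Na pH 7.6 buffer containing 10 mM MgCl2, Sfp (15 nM) modified BHQ-2-YbbR (12.5 uM) using rhodamine-CoA (5 uM). Two reads 30 minutes apart at 525/598 nm yielded each well's rate.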
gsp ag – agonists of gsp mutant (McCune-Albright syndrome); gsp mutant cells, cAMP HTRF, 30 min; control for the full effect not named in the record; Potency, µM (doses to about 76.9 µM), for inactives: at the highest dose activation (cAMP increase), actives largely listed as activators; 340,000 tested, 0.13% active; AID 624287; active = well fitted activation curve with a large enough effect; inconclusive = small, poorly fitted or top-dose-only effect, or another doubt; inactive = no such curve, though single readings can be large or run the other way; cell line not stated here;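 note: phosphodiesterase inhibitor Ro 20-1724 added with compounds to block cAMP breakdown; potency is the fitted concentration of half-maximal effect; nearly all actives have a fitted effect of over 60% in size; about a fifth of the inactives were tested at one dose only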
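Cells in DMEM/10% FBS with G418 were pretreated with compounds in DMSO plus […] (300 uM stock) for 30 min at 37C. cAMP was measured by HTRF (cAMP-d2 plus anti-cAMP antibody-K) after 30 min at room temperature.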
gsp antag – antagonists of gsp mutant (McCune-Albright syndrome); gsp-mutant cells, cAMP HTRF, 30 min; control for the full effect not named in the record; Potency, µM (top dose mostly 76.9 µM), for inactives: top-dose activity change, negative = inhibition, actives largely listed as inhibitors; 340,000 tested, 0.4% active; AID 624288; active = falling curve of any shape with a large fitted effect; inconclusive = falling curve, mostly with a smaller effect; inactive = flat or rising curve; cell line not stated here;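 note: intracellular cAMP measured with PDE inhibitor Ro 20-1724 present during compound exposure; potency is the fitted concentration of half-maximal effect; % is set by controls: 0 for no effect and ±100 for the full control effect; nearly all actives have a fitted effect of over 65% in size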
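HTRF cAMP read-out (cAMP-d2 plus anti-cAMP antibody-K in lysis buffer, 30 min RT). Before lysis, cells are exposed to compounds with […] for 30 min at 37C in DPBS containing Ca/Mg, BSA and Tween 20.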
Menin-MLL FL inh – inhibitors of human menin-MLL interaction, wild-type MLL peptide | AID 1766 | Fluorescence polarization, fluorescein-MLL peptide displacement from menin | FP activity change, % at 61.4 µM | 290,000 tested, under 10 active; inconclusive = falling polarisation curve, or a change in total fluorescence; inactive = total fluorescence flat and polarisation flat or rising; no compound was filed as active; the % refers to the polarisation; negative = inhibition;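 note: % of control where 0% means no effect; inhibitors lower the polarisation; unlabelled MLL peptide was the positive control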
PINK1 expr mod – modulators of PINK1 expression. PINK1 immunofluorescence, high-content cytometry, 24 h. Potency, µM (highest dose often 76.6 µM), for the others: at the top dose activation (PINK1 increase), most hits filed as activators. 410,000 tested, 0.2% active; active = well fitted activation curve with a large enough effect; inconclusive = small, poorly fitted or top-dose-only effect; inactive = flat fitted curve, though single readings scatter; cell line not stated here;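 note: potency is the fitted concentration of half-maximal effect; % of control where 0% means no effect; nearly all actives have a fitted effect of over 65% in size; a mitochondrial uncoupler was the plate control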
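Fluorescence from anti-PINK1 antibody, together with nuclear and cell stains, was scanned on a laser-scanning cytometer. Before staining, stable-line cells were incubated 24 hours with compounds at 5 concentrations; primary antibody 12 h at 10 degrees C.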
ClpP mod – qHTS Assay for Activators of ClpP; purified B. subtilis ClpP, FRET peptide cleavage, 20 min; AID 651965, 2013; Potency, µM (top dose mostly 57.5 µM), without a hit: top-dose activity change, negative = active; ATP-dependent Clp protease proteolytic subunit (Bacillus subtilis (strain 168)), P80244; 340,000 tested, 1.9% active; active = well fitted falling curve with a large enough effect; inconclusive = small, poorly fitted or top-dose-only effect; inactive = no such curve, though single readings can be large or run the other way; note: potency is the fitted concentration of half-maximal effect; the source files actives as falling curves though it sought activators and does not explain the sign; nearly all actives have a fitted effect of over 65% in size; many hits overshoot -100%
Target sequence (P80244 whole entry, looked up): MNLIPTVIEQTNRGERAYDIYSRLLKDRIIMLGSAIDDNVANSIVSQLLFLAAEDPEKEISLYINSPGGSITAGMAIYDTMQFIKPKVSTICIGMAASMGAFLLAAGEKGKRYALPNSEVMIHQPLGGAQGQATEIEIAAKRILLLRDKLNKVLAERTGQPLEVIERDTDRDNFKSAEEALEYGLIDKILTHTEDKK
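Buffer: 100 mM Tris/HCl pH8, 100 mM KCl, 0.05% low protease BSA, 2.5% glycerol, 0.01% Tween-20. ClpP 10 microg/mL final; 20 min RT; delta FRET normalized to ADEP and DMSO controls.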
D2 ag – agonists of human D2 dopamine receptor (beta-arrestin); P14416; DiscoveRx PathHunter D2 beta-arrestin, luminescence, 90 min; 100% = 57 uM dopamine signal; activation, % (no concentration beside the values); 360,000 tested, 0.084% active; in the data active = activation above about 40%; inconclusive = about 15% to 40%; inactive = below about 15%; note: compound concentration not given in the record; the text of the record calls up to 30% inactive
Target sequence (P14416 whole entry, looked up): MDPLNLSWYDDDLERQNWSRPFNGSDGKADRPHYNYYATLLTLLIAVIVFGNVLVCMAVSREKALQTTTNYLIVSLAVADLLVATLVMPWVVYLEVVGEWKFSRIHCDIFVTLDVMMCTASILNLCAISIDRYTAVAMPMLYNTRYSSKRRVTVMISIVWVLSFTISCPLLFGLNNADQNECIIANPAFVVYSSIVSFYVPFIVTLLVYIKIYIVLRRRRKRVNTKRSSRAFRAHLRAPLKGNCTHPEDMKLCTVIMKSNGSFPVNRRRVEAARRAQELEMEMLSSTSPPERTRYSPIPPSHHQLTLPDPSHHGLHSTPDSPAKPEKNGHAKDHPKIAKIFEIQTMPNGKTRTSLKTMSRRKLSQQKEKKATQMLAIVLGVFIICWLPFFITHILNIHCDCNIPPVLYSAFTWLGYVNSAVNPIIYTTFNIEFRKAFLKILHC
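DiscoveRx PathHunter D2 beta-arrestin cells (2,100/well) attached overnight, then compound-stimulated 90 min at 37 C in HBSS/10 mM HEPES/0.1% Tween-20 buffer; beta-galactosidase complementation read by luminescence after 1 h at ambient temperature. Dopamine 57 uM final (EC100) as control.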
An asterisk follows results filed as active; ? = inconclusive; · = no result given; & = joins results of further samples; [ ] = remark or other dose.

SMILES | Sfp PPTase inh | gsp ag | gsp antag | Menin-MLL FL inh | PINK1 expr mod | ClpP mod | D2 ag
Cc1ccc(Cl)cc1-c1cc(C(=O)Nc2ccc(F)cc2)[nH]n1 | · | · | · | · | ? | -2.4% | 0.3
O=c1c(C(c2ccc(Br)cc2)c2c(O)nc3n(c2=O)CCS3)c(O)nc2n1CCS2 | 17.4% | ? | 1.1% | 2.3 | 0.5% | · | -3.4
COC(=O)c1sccc1NC(=O)CC1NCCNC1=O (stereo not drawn) | 3.3% | ? | -0.5% | 4.0 | -0.6% | -1.9% | -4.5
Cc1ccc(/C=N/N2CCN(Cc3cccc4ccccc34)CC2)s1 | 8.1% | -22.5%[15.4 µM] | 6.4% | -1.5 | 5.9% | · | -1.0
CCn1c(SCC(=O)Nc2nc(-c3ccccc3)cs2)nnc1-c1ccccc1 | -1.2% | 22.9% | -18.8% | 2.6 | -1.6%[38.3 µM] | -3.8% | -0.6
Cc1ccc(C(=O)NCC(=O)N2CCN(c3cccc(Cl)c3)CC2)s1 | · | 10.6% | 6.9% | · | -0.6% | · | 8.3
O=C(NC1CCN(Cc2ccccc2)CC1)c1cc(S(=O)(=O)Nc2ccc(F)cc2)ccc1Cl | · | -0.3%[15.4 µM] | -0.9% | · | -0.1% | 1.3% | -3.2
CC(/C=C1\SC(=S)N(CCCC(=O)Nc2ccc(C(=O)O)cc2)C1=O)=C\c1ccccc1 | -10.2% | 0.5% | -20.4% | 24.9 | ? | -3.5% | -2.3
Cc1ccccc1C(=O)Nc1ccc(S(=O)(=O)NCC2CCCO2)cc1 (stereo not drawn) | · | 12.2% | · | · | 1.5% | -1.6% | -2.1
Cn1nc(C(=O)NC2CCCCC2)c2c1-c1ccccc1SC2 | 10.6% | 24.9% | -6.0% | -1.0 | 10.2% | -0.5% | -8.4
CCCCC[C@@H](O)c1cc2ccccc2c(=O)o1 | · | · | 0.2% | · | 1.4% | -6.1% | -0.4
CCOC(=O)Cn1nc(C)c(NC(=O)c2ccc(Br)o2)c1C | 2.2% | 26.3% | 9.4% | -6.3 | -1.4% | · | -2.5
Cc1ccc(S(=O)(=O)N2CCCCC2)cc1C(=O)N1CCN(c2ccccn2)CC1 | 11.3% | 2.6%[15.4 µM] | 2.8% | 0.2 | -0.7% | 28.2µM* | -1.5
CCc1nc2c(OCC(=O)C(C)(C)C)cccn2c1N(C)C(=O)COc1ccccc1 | · | · | · | · | 0.3% | -3.6% | -4.3
c1cc(-c2ccc(N3CCOCC3)cc2)n2cnnc2c1 | · | · | · | · | 0.6% | 4.2% | -3.2
Cc1cc(C)c2c(n1)sc1c(N3CCN(C)CC3)ncnc12 | 22.2% | -20.2% | 11.8% | 1.1 | 2.1% | -8.0% | -4.2
Cc1cc(=O)[nH]c(SCC(=O)NC(C)C2CC3CCC2C3)c1C#N (stereo not drawn) | 4.9% | 7.4%[15.4 µM] | -23.0% | 7.6 | 0.6% | · | -1.2
C=CCOc1c(Cl)cc(CNc2nccs2)cc1OC | -0.7% | 7.5%[15.4 µM] | 2.0% | -7.4 | 1.4% | -0.4% | -7.5
CC(C)(C)Cc1nnc(NS(=O)(=O)Cc2ccccc2)s1 | -6.1% | -18.8% | -26.0% | 4.9 | 2.1% | -0.6% | -1.2
Cc1ccnc(NC(=O)c2cc(S(=O)(=O)N3CCCCC3)ccc2Cl)c1 | -19.3% | -5.8% | -14.0% | -0.9 | -1.9% | 22.4µM* | -0.8
COc1ccc(S(=O)(=O)Nc2ccc3c(c2)CC(=O)N([C@@H](C)CO)C[C@@H](C)[C@@H](CN(C)Cc2ccccc2)O3)cc1 | · | · | -17.0% | · | 15.5% | 0.8% | -3.3
COc1ccccc1C(C(=O)NCc1ccccc1)N(C(=O)c1csnn1)C1CC1 (stereo not drawn) | 16.9% | 10.5%[15.4 µM] | · | -4.8 | 0.4% | · | 2.7
O=C(NCC(=O)N(CC1CCCO1)C(C(=O)NC1CCCCC1)c1ccccc1)c1cccs1 (stereo not drawn) | 3.2% | 0.9% | -1.3% | 0.0 | -2.0%[38.3 µM] | -0.9% | 0.1
CC(=O)c1ccc(-n2nncc2C(C)(C)C)cc1 | 19.5% | -44.1% | 3.3% | -1.0 | -0.6%[38.3 µM] | 0.4% | 0.7
Cc1cccc(C)c1NC(=O)COC(=O)c1cc(=O)[nH]c2ccccc12 | · | 22.6% | 0.3% | · | 4.2% | -11.2% | 1.3
COc1ccccc1C1c2ccc3ccccc3c2Oc2ncn(CCCO)c(=N)c21 (stereo not drawn) | -19.5% | 9.0% | 14.1% | 0.7 | -0.9% | · | -1.0
CC1(CO)COC2(OC1)C(=O)Nc1ccccc12 (stereo not drawn) | · | 23.1%[15.4 µM] | -1.3% | · | 0.1% | 0.5% | 0.3
Cc1ccc(C(=O)c2coc3ccc(O)cc23)cc1 | 1.5% | 0.4% | -11.8% | 4.5 | 0.8% | -0.9% | -3.5
Cc1ccc(C)c(NC(=O)CN2C(=O)CC(C)S(=O)(=O)c3ccccc32)c1 (stereo not drawn) | 11.5% | -23.9% | 9.1% | -2.1 | -0.5% | -2.0% | -13.5
CCOc1ccccc1-n1c(SC(C)C(=O)NCC2CCCO2)nc2ccccc2c1=O (stereo not drawn) | · | 5.5% | -12.1% | · | 0.5% | -11.4% | 0.3
O=C(NCc1ccc(OC(F)(F)F)cc1)C1CC2Cn3c(nc4ccccc43)C2N1c1ccccc1 (stereo not drawn) | -0.4% | -13.2% | -3.2% | 11.3 | 0.8% | -0.4% | -4.5
CCOc1ccc(CCN2C(=S)N([C@@H](Cc3ccc(O)cc3)CN3CCCC3CN3C(=S)NC[C@@H]3Cc3ccc(O)cc3)C[C@@H]2CC(C)C)cc1 (stereo partly drawn) | · | · | -11.7% | · | 2.8% | -1.0% | 1.5
Cc1cc(-c2nnc(CCC(=O)NCc3cccc(C(F)(F)F)c3)o2)no1 | 0.3% | -57.9%[inhibitor] | 12.8% | · | -0.5% | -3.2% | 4.7
CC1(C)CC(=O)c2cnc(NC(=O)Cc3ccc(Cl)cc3)nc2C1 | 5.9% | -9.1% | 1.7% | 0.9 | 0.0% | 0.9% | -1.8
CC1(c2ccccc2)NC(=O)N(CC(=O)Nc2cccc(/C=C/c3ccccn3)c2)C1=O (stereo not drawn) | · | -10.9%[15.4 µM] | ? | · | 3.2% | · | 4.5
OCCC1CN(Cc2cccn2-c2cccnc2)CCN1C1CCCC1 (stereo not drawn) | 16.5% | ? | -2.7% | -0.3 | -1.8% | -0.5% | -3.1
O=C(COC(=O)CCSc1ccc(Cl)cc1)NCc1ccc(Cl)cc1 | 5.4% | 11.4% | 7.1% | 0.7 | 2.5% | · | -0.1
COc1ccc(NC(=O)CN(C)C(=O)CN2C(=O)C3CCCCC3C2=O)cc1 (stereo not drawn) | · | 9.0% | -0.1% | · | 1.2% | 0.7% | -1.7
CCOc1ccccc1NC(=O)COc1ccc(S(=O)(=O)N2CCCC2)cc1 | -8.4% | 3.0%[15.4 µM] | -8.5% | -0.3 | -2.0% | · | 0.7
CCCCN1CC(O)=C(c2nc(-c3ccc(Cl)cc3)cs2)C1=N | -6.6% | -46.1%[inhibitor] | 2.3% | 2.7 | 2.7% | 0.3% | -2.6
CC(=O)c1sc(NC(=O)CCCc2nc3ccccc3c(=O)[nH]2)nc1-c1ccccc1 | · | ? | 12.1% | · | 5.9% | -0.6% | -0.1
CS(=O)(=O)N(CC(=O)Nc1ccc(C(N)=O)cc1)C1CCCCC1 | 6.4% | 9.7% | 11.2% | 2.2 | 0.9% | 0.1% | -5.0
COc1ccc(Cc2nc3ccccc3c(=O)n2N)cc1OC | · | 15.0% | 2.5% | · | 2.6% | · | -3.3
CCOC(=O)N1CCC(Nc2nc3ccccc3n3cnnc23)CC1 | · | 0.5% | 3.2% | · | -0.8% | -7.5% | -2.0
COc1ccccc1NC(=O)c1ccccc1NC(=O)c1ccccc1C(=O)O | 15.2% | -6.2% | -0.1% | -4.3 | 7.2% | -5.7% | -4.4
COc1ccccc1C(=O)NNC(=O)c1nn(Cc2ccccc2)c(=O)c2ccccc12 | 11.6% | -1.5%[15.4 µM] | -11.9% | 2.1 | 9.3% | · | -2.4
COc1ccc(C(=O)Nc2ccnn2C2CCN(Cc3cn(C)nc3C)CC2)cc1 | 2.5% | ? | -15.1% | · | 0.0% | -1.7% | -5.7
CCOC(=O)N1CCC(NC(=O)C2CCCN(c3nc4ccccc4o3)C2)CC1 (stereo not drawn) | -5.5% | 8.6% | -6.0% | -3.3 | -4.3%[38.3 µM] | -1.6% | 1.0
Cc1ccc(CCNS(=O)(=O)c2cc3c(cc2Cl)NC(=O)CO3)cc1 | 8.4% | -87.9%[inhibitor] | -17.6% | -0.4 | 1.9% | 1.8% | -2.4
CCCCN(C)CCNC(=O)CN1C(=O)CSc2ccc(S(=O)(=O)N3CCOCC3)cc21 | 8.5% | 14.3% | 3.9% | · | -0.8%&-1.8% | -1.4%&0.7% | 3.3
COc1cc(CC(=O)O)ccc1O | -11.6%&7.8% | · | 23.0% | 3.1&-2.6 | 0.8% | ? | -6.4
CN(c1ccccc1)S(=O)(=O)c1cc(C(=O)OCC(=O)N2CCN(C(=O)c3ccco3)CC2)ccc1Cl | 3.6% | 11.2%[15.4 µM] | -12.6% | 3.5 | 0.0% | 1.1% | 5.9
C=C(C)CC1N(c2cccc(OC)c2)C(=O)C2C(C(=O)O)C3C=CC21O3 (stereo not drawn) | 13.4% | ? | 8.3% | -0.6 | 2.9% | 0.2% | -4.3
OCC(Cc1ccccc1)Nc1c2ccccc2nc2ccccc12 (stereo not drawn) | -9.0% | -6.9% | 1.1% | ? | 13.2% | -10.6% | 4.4
CN(Cc1c(C(=O)N/N=C/c2c(F)cccc2Cl)nnn1-c1nonc1N)c1ccccc1 | 4.7% | ? | ? | 0.5 | 2.5% | -2.7% | -1.5
COc1ccc(C(=O)NC(=S)Nc2cccc3nc(C)ccc23)cc1OC | -17.7% | ? | -18.4% | -1.7 | 0.9% | 0.2% | -4.3
